Screening data: PubChem BioAssay, several laboratories
Env fusion inh: inhibitors of HIV Env-mediated cell fusion | AID 651610 | 1.1% of 360,000 active | HeLa-JRFL Env/CEM21 cell fusion, luciferase | inhibition, % at 12.3 µM;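 active = mean replicate inhibition score of at least 50 and every replicate individually at or above 50; inconclusive = only one of the two criteria met; inactive = mean below 50 and not all replicates reaching 50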;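 also: 0% = plate neutral controls and 100% = maraviroc near 300 nM; one replicate is shown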
MT1-MMP act inh: MT1-MMP (human) activation inhibition. GFP/RFP ratio change, % at 20 µM. HT1080 RFP-PRO-GFP cells, GFP/RFP ratio fluorescence, overnight; percent of plate control window, DMSO zero. 0.061% of 360,000 active. P50281;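 active = GFP/RFP ratio change of at least 30% with cell ATP level not reduced by more than half and red fluorescence within 50% of control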; also: strong numbers were not always called active
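Assay system – RFP-PRO-GFP reporter HT1080 cells · Compound dosing – single dose of 20 µM compound, 1% DMSO final · Incubation – overnight compound exposure at 37 °C · Measure – GFP/RFP fluorescence ratio · Benchmarks – DMSO wells and RFP-L50D-GFP cells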
PABP polyA inh: blocks human PABP binding to poly(A) RNA; P11940; inhibition, % at 35 µM; 1% of 290,000 active; AID 2014; fluorescence polarization;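 active = 50% or more with normal probe brightness, or confirmed in later tests; inconclusive = above 50% with abnormal brightness, or retests that disagree; inactive = below 50% or failed in later tests; about a fifth of its hits are not listed in these tables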;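 also: calls also rest on retests at 20 µM and on dose response follow-up; controls were probe without protein and protein plus probe with vehicle; some compounds called inactive have numbers as strong as hits; many hits fall short of the cut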
Target sequence (P11940 whole entry, looked up): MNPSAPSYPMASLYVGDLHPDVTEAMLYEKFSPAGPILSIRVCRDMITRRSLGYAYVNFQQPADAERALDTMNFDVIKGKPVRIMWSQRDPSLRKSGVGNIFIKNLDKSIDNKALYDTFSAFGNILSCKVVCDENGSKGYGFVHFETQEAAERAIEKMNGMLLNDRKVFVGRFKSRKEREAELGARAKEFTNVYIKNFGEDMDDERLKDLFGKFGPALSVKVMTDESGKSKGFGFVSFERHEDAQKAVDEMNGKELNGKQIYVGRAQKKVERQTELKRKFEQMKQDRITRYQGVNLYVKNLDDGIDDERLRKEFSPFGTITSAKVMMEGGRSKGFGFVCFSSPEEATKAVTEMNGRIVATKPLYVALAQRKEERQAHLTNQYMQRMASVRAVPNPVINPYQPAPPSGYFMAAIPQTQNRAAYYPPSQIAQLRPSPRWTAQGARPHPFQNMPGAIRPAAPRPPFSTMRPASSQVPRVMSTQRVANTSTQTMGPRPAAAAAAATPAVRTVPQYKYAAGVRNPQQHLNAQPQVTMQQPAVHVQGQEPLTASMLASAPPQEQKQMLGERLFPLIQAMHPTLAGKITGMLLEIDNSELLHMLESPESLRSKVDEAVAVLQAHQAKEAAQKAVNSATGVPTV
Rce1 inhib: yeast Ras-converting enzyme inhibition; Q03530; yeast membranes, quenched prenylated peptide cleavage fluorescence; calls only; 0.27% of 290,000 active; AID 2563;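 active = fall in fluorescence gain of 50% or more versus controls, with final raw signal at or below 3038400; inconclusive = same 50% fall but final raw signal above 3038400; inactive = fall in fluorescence gain under 50%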;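 also: plate controls were neutral control wells for no effect and wells lacking membranes for full effect; tested at 10 µM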
Target sequence (Q03530 whole entry, looked up): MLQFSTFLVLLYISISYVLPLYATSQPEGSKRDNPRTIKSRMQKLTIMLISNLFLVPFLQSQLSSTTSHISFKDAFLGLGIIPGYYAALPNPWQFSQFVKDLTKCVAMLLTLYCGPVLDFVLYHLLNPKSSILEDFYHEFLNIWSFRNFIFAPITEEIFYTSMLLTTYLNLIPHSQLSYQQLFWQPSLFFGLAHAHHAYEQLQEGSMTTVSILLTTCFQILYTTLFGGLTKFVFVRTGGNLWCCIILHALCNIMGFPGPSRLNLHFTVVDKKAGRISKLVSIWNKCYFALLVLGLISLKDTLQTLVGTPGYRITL
eIF4H inh: inhibitors of RNA binding by human eIF4H; Q15056; eIF4H fluorescence polarization binding assay; inhibition, % at 35 µM; 0.94% of 290,000 active; AID 2012;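 active = 50% or more with normal probe brightness, or confirmed in later tests; inconclusive = above 50% with abnormal brightness, or retests that disagree; inactive = below 50% or failed in later tests; about a fifth of its hits are not listed in these tables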;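 also: calls also rest on retests at 20 µM and on dose response follow-up; 0% = protein and probe with vehicle and 100% = probe without protein; strong numbers were not always called active; many hits fall short of the cut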
Yeast UUG start: alters start codon recognition fidelity in yeast; S. cerevisiae UUG-firefly luciferase reporter, luminescence/redox ratio; activity score, % at 18.7 µM; 0.13% of 350,000 active;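 active = replicate mean at a twofold rise or more, about +100% in these data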;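 also: firefly luciferase made from a UUG start codon reports start codon fidelity; reporter light over untreated wells divided by growth signal over untreated wells; some hits fall short of that in this replicate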
CSC inhib: blocks cancer stem cells | 1.1% of 300,000 active | inhibition, % at 7.5 µM | cancer stem cell-like cells viability, luminescence;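 active = mean at 75% or more and at least half the replicates too; inconclusive = mean and replicates disagree; tested in HMLE shEcad cells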;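 also: 0% = median of negative and 100% = median of positive control wells; the first replicate is given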
eIF4H inh retest: recorded beside eIF4H inh, whose call it bears; inhibition, %; compound at 20 µM; confirmation average;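 mean of two retest wells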
PABP polyA inh retest: also measured in PABP polyA inh; calls as there; inhibition, %; compound at 20 µM; confirmation repeats;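 mean of two retest wells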
MT1-MMP act inh RFP: further read-out of MT1-MMP act inh, marked with its call; RFP signal change, %; measured here: RFP expression control read;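 0 = vehicle wells; hits needed this value within 50% of zero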
Numbers without * were called inactive; i = inactive; ? = inconclusive; . = not tested or not shown. The order is random (roughly 3% active in at least one column).

SMILES | Env fusion inh | MT1-MMP act inh | MT1-MMP act inh RFP | PABP polyA inh | Rce1 inhib | eIF4H inh | Yeast UUG start | CSC inhib | others
Cc1ccc(NC(=O)CC2S/C(=N/N=C/C=C/c3ccccc3)NC2=O)cc1Cl (stereo not drawn) | . | 4 | 6 | -3 | i | 5 | . | 0
CC(C)c1cccc(-c2csc(C(C)(O)c3ccc(F)c(F)c3)n2)c1 (stereo not drawn) | 7 | 1 | -3 | . | . | . | -11 | .
O=C1CC(c2ccc(S(=O)(=O)NCCOc3ccccc3)cc2)CN1 (stereo not drawn) | 15 | 2 | 1 | -9 | i | 2 | -9 | 3
CC(C)(C)c1[nH]nc2c1C(c1ccncc1)C(C#N)=C(N)O2 (stereo not drawn) | . | -1 | 5 | 4 | i | -8 | -8 | .
Nc1c(NCc2ccccc2F)c(=O)[nH]c(=O)n1Cc1ccccc1 | . | -11 | 1 | 51* | i | 51* | -19 | -8
Cc1ccc(-c2csc(N=C(N)N)n2)cc1 | -21 | 10 | -2 | -11 | i | 1 | -7 | 5
Cn1c(SCC(=O)Nc2cccc3ccccc23)nc(O)cc1=O | -100 | 2 | 3 | -3 | i | -6 | -4 | -9
N#Cc1c(N)n(-c2ccc(C(=O)O)cc2)c2nc3ccccc3nc12 | -3 | -11 | 8 | 37 | i | 80* | -15 | -6 | eIF4H inh retest=55*;PABP polyA inh retest=30
CC(C)CC(C(=O)NC(C)(C)C)N(Cc1ccccc1Cl)C(=O)c1snc(C(N)=O)c1N (stereo not drawn) | 4 | -7 | -8 | -6 | i | -6 | -17 | 17
O=C(O)c1ccc(CSc2nnc(-c3ccco3)n2-c2ccccc2)cc1 | -5 | -1 | 3 | 4 | i | 0 | . | -6
COc1ccc(NC(C#N)c2ccc(OC)cc2)cc1 (stereo not drawn) | -57 | 5 | 0 | -1 | i | -12 | -16 | 9
Clc1ccccc1-c1nnc2sc(-c3cccs3)nn12 | 1 | 0 | -2 | 1 | i | 4 | 3 | 1
O=C1CCCc2c1[nH]c1ccccc21 | 9 | 6 | 1 | 9 | i | 1 | -19 | -4
NC(=O)CN(c1ccc(Cl)cc1)S(=O)(=O)c1ccccc1 | -4 | 1 | 5 | 2 | i | -9 | . | -11
CC(=O)CC1(OC(C)=O)C(=O)N(C)c2ccccc21 (stereo not drawn) | -11 | -1 | 4 | -2 | i | 4 | . | 22
CCSc1ncccc1C(=O)N[C@@H](CCSC)C(=O)OC | 11 | 0 | 3 | -2 | i | -1 | -15 | -18
O=C(NCc1cccnc1)C1c2ccccc2C(=O)N1C1CCCC1 (stereo not drawn) | -4 | 0 | 6 | -4 | i | -1 | -12 | 5
Cc1cccc(NC(=O)CSC2=NN3CCCC(=O)N=C3S2)c1C | 7 | -1 | 3 | 1 | i | 45 | -8 | -13
CCOC(=O)C1=C(C)N=C2SCCC(=O)N2C1c1cccs1 (stereo not drawn) | . | -2 | 1 | -6 | i | -3 | 11 | 0
COc1ccc(OC)c(C(O)c2coc3ccc(O)c(CN(C)C)c23)c1 (stereo not drawn) | -333 | 3 | 1 | -12 | i | 12 | -8 | -2
CC(=O)OC[C@@H]1CN(Cc2ccccc2)C[C@H](n2cnc3c(N4CCN(c5ccccc5)CC4)ncnc32)O1 | -1 | 1 | -1 | . | . | . | -9 | .
Cc1ncsc1C(=O)NCc1ccc(N2CCCC2=O)cc1 | 8 | 3 | -5 | -7 | i | -7 | -6 | -21
CCc1ccc(Nc2n[n+](-c3ccccc3)c(-c3cccc(C)c3)s2)cc1 | -10 | 4 | -15 | . | . | . | -35 | 27
CCOC(=O)C1CSC(CC(=O)Nc2ccc(Cl)c(Cl)c2)C(=O)N1 (stereo not drawn) | 3 | -5 | 0 | 4 | i | -1 | -5 | -9
CCN1C(=O)/C(=C/C=C2/SCCN2C)SC1=S | . | -52 | 5 | ? | i | ? | -16 | 7
CCOc1ccc(NC(=O)CSc2nnc(Cc3cccn3C)n2-c2ccc(OC)cc2)cc1 | . | 1 | 4 | 3 | i | -3 | -13 | 31
CC(C)CNC(=S)N1CCN(Cc2ccc3c(c2)OCO3)CC1 | 1 | 4 | -1 | 2 | i | -1 | . | 28
CC[C@]12c3[nH]c4ccccc4c3CCN1C(=O)C(CC(=O)NCCCOC)C[C@@H]2C(=O)N1CCN(C(=O)c2ccco2)CC1 (stereo partly drawn) | 5 | 7 | 5 | . | . | . | -18 | .
O=C(Oc1ccc(Br)cc1C(=O)/C=C/c1ccccc1F)c1ccco1 | 2 | -4 | -5 | . | i | . | -13 | ?
N#Cc1cccc(Nc2c3c(nc4ccccc24)CCCC3)c1 | 7 | -1 | -6 | 10 | i | 8 | . | -22
Cc1ccccc1NC(=O)OCc1cn(-c2ccc(Cl)cc2)nn1 | 5 | 0 | 4 | -1 | i | -6 | -6 | -16
NC(=O)C1CCN(CC(O)COCc2ccccc2Cl)CC1 (stereo not drawn) | -5 | -1 | 2 | 7 | i | 3 | -12 | -8
CC(C)(C)NCC(O)COc1ccccc1C1CCCC1 (stereo not drawn) | -29 | -1 | -1 | . | . | . | -17 | -3
CCCCc1ccc(NC2=NCC(=O)N2CCc2ccccc2)cc1 | 10 | -5 | -13 | 11 | i | -3 | -8 | 15
CCCCn1c(N)c(N(CCOC)C(=O)c2cc(S(=O)(=O)N3CCCCC3)ccc2Cl)c(=O)[nH]c1=O | 10 | 0 | 5 | -1 | i | -5 | 0 | -4
Cc1ccc(NC(=O)CSCC(=O)N(C)CC(=O)Nc2cccc(F)c2)cc1 | -34 | 4 | 7 | . | i | . | -11 | -18
CC(CC(=O)Nc1ncc([N+](=O)[O-])s1)c1ccccc1 (stereo not drawn) | -2 | -5 | -14 | 12 | i | -4 | -2 | 23
CC(=O)Nc1c(Br)cc2c(c1Br)Cc1cc([N+](=O)[O-])ccc1-2 | 6 | 1 | 3 | . | . | . | -7 | .
Cc1nc2scc(-c3ccccc3)c2c(=O)n1/N=C/c1ccco1 | . | -5 | 1 | 1 | i | -7 | -8 | .
O=C(CN1CCc2cc3c(cc2C1)OCCCO3)Nc1cccc(Br)c1 | 11 | 0 | 3 | 1 | i | -11 | -1 | 8
CCOc1cc(CNc2ccc(S(N)(=O)=O)cc2)ccc1OCC(=O)NC(C)(C)C | 4 | 6 | -7 | 0 | i | -6 | . | -3
COc1ccccc1CNC(=O)CSc1ccc(Br)cc1 | 14 | 0 | 3 | -4 | i | -6 | . | 6
CC(C)(C)OC(=O)N(Cc1ccccc1)Cc1cccc(OCc2cccc(NC(=O)c3ccccc3)c2)c1 | 6 | -13 | -20 | . | . | . | -6 | .
N#CC(c1ccc(N)cc1)C(CC(=O)c1ccccc1)c1ccccc1 (stereo not drawn) | -19 | 3 | -1 | . | . | . | -7 | .
COc1ccc(OC)c2[nH]c(C(=O)N3CCC(C(=O)O)CC3)cc12 | -3 | -1 | 1 | 10 | i | 6 | -11 | 4
COC(=O)c1[nH]c2ccccc2c1NC(=O)CN1CCN(Cc2ccc3c(c2)OCO3)CC1 | . | -1 | -3 | -11 | i | -17 | -9 | -5
Cc1ccc(S(=O)(=O)N(C)Cc2ccc(-c3nnc4n3CCC4)cc2)cc1 | . | 6 | 5 | 1 | i | -8 | -12 | -13
Cc1ccn2cc(CCNS(=O)(=O)c3ccc4c(c3)OCCO4)nc2c1 | -24 | 2 | 11 | 6 | i | 5 | -13 | -6
Cc1ccc(Oc2nnc(-c3ccc(C)cc3)c3ccccc23)cc1 | -10 | 1 | 0 | -10 | i | -9 | -5 | 0
O=[N+]([O-])c1ccc(N2CCOCC2)cc1O | 6 | 0 | 1 | -8 | i | -1 | -17 | 2
Cc1ccc(C(c2nnnn2C2CCCCC2)N2CCN3CCCC3C2)cc1 (stereo not drawn) | -72 | -21 | -4 | -2 | i | -5 | -18 | 8
CCCCN(C)C(=O)Cn1nc(Cc2ccncc2)c2ccccc2c1=O | -4 | -5 | 1 | 6 | i | -5 | 0 | -3
Cc1ccc(C)c(C(=O)N2CCC(n3nccc3NC(=O)C3CC3)CC2)c1 | -13 | -3 | 1 | -21 | i | -13 | -7 | -3
Cc1cc(C(=O)OC(C)C(=O)Nc2cccc(Cl)c2)on1 (stereo not drawn) | 7 | 0 | 3 | . | . | . | -9 | .
Cc1ccsc1C=C1C(=O)c2ccccc2C1=O | 4 | 5 | 7 | -3 | i | -4 | -15 | -8
CCCCN1C[C@H](c2ccc(OC)cc2)[C@@H](CC(=O)Nc2ccc(OC)cc2)C1=O | -57 | 2 | 3 | . | . | . | -27 | .
CC(C)CC(=O)Nc1ccccc1-c1nnn(CC(=O)N2CCc3ccccc3C2)n1 | 14 | 3 | 3 | -3 | i | -5 | -14 | -10
COc1ccc2nc(SCC(=O)N3CCCCCC3)c(C#N)cc2c1 | 13 | -4 | 2 | -10 | i | -3 | -10 | -12
COc1ccc(NS(=O)(=O)NC(=O)c2cn(C)c3ccccc23)cc1 | 0 | 4 | 7 | 0 | i | 0 | -18 | 1
O=C(NCCCn1ccnc1)c1cc2c(s1)CCCC2 | 27 | 2 | 2 | -12 | i | -11 | -19 | -6
Additional structures follow.
SMILES | Env fusion inh | MT1-MMP act inh | MT1-MMP act inh RFP | PABP polyA inh | Rce1 inhib | eIF4H inh | Yeast UUG start | CSC inhib | others
Cc1ccc(C)c(NC(=O)C(OC(=O)c2ccc(CO)cc2)c2ccccc2)c1 (stereo not drawn) | -22 | -3 | -3 | . | . | . | 6 | .
CCC[C@@H](OS(N)(=O)=O)[C@@H](Cc1ccccc1)C(=O)OCC | 1 | 7 | 1 | 0 | i | -7 | 16 | 2
CCN(CCNC(=O)c1ccc2nc(-c3ccccc3NC(C)=O)c(=O)[nH]c2c1)c1ccccc1 | -13 | 4 | 0 | 4 | i | 2 | -2 | -3
COc1cccc(C(=O)NCc2nnc(SCC(=O)Nc3nccs3)n2-c2cccc(C)c2)c1 | 3 | 2 | -2 | -4 | i | -2 | -2 | -15
CSCCC(NS(=O)(=O)c1ccccc1F)C(=O)N1CCCCCC1 (stereo not drawn) | 15 | -4 | 0 | 4 | i | -2 | 3 | 2
CCOC(=O)c1ccc(N2C(=O)c3n[nH]c(C)c3C2c2cccnc2)cc1 (stereo not drawn) | . | 4 | 2 | 1 | i | 0 | 11 | 15
O=C(/C=C/c1ccccc1)NCC(=O)N/N=C/c1ccccc1[N+](=O)[O-] | -44 | 11 | 4 | 15 | i | -5 | . | 1
O=C(O)CCc1ccc(-c2cccs2)n1NC(=O)c1cccs1 | 2 | 5 | 6 | -13 | i | 2 | -23 | 11

Of the compounds above, these have bromine.
SMILES | Env fusion inh | MT1-MMP act inh | MT1-MMP act inh RFP | PABP polyA inh | Rce1 inhib | eIF4H inh | Yeast UUG start | CSC inhib | others
O=C(Oc1ccc(Br)cc1C(=O)/C=C/c1ccccc1F)c1ccco1 | 2 | -4 | -5 | . | i | . | -13 | ?
CC(=O)Nc1c(Br)cc2c(c1Br)Cc1cc([N+](=O)[O-])ccc1-2 | 6 | 1 | 3 | . | . | . | -7 | .
O=C(CN1CCc2cc3c(cc2C1)OCCCO3)Nc1cccc(Br)c1 | 11 | 0 | 3 | 1 | i | -11 | -1 | 8
COc1ccccc1CNC(=O)CSc1ccc(Br)cc1 | 14 | 0 | 3 | -4 | i | -6 | . | 6
